KCNQ2 enhance: potentiators of rat KCNQ2 potassium channel | O88943 | CHO-K1 KCNQ2, FluxOR thallium flux fluorescence; active compounds read high | B-score at 10 µM | hit rate 0.54% among 310,000 | AID 2239;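 active = fluorescence ratio B-score at least 3 SD of library B-scores, with initial fluorescence B-score within 3 SD, cut at about 5.3 in these data; same plate scores as AID 2156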;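 note: B-score of peak minus minimum over baseline fluorescence ratio after K+ and Tl+ stimulus; positive B-score means potentiation of KCNQ2 with more thallium influx and brighter signal; only the inactives scoring about 0 or higher are listed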
Target sequence (O88943 whole entry, looked up): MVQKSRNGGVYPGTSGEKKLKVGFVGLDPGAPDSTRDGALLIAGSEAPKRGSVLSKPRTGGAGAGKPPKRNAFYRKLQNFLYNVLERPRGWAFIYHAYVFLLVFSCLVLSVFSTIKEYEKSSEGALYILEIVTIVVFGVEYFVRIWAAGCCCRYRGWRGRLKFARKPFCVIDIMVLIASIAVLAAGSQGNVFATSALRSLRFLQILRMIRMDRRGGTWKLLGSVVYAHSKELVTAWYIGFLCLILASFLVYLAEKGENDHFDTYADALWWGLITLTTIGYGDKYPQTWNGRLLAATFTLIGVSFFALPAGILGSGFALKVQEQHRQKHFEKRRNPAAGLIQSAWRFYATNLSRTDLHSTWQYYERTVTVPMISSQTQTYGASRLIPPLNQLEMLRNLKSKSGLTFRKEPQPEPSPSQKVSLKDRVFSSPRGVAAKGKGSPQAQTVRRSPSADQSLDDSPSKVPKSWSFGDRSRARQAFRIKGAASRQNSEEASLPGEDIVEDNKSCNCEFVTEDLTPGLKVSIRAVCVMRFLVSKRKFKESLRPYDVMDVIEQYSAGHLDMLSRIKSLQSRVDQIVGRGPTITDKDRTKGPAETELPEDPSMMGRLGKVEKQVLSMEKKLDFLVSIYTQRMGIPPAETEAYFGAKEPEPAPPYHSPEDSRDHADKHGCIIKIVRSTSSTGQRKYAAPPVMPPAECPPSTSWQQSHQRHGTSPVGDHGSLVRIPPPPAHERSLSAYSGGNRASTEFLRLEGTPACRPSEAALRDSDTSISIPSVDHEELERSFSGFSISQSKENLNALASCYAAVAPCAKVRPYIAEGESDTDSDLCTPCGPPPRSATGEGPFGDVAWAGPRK
KCNQ2 enhance baseline: recorded beside KCNQ2 enhance, whose call it bears; B-score; compound at 10 µM; measured here: initial fluorescence intensity artifact check;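 brightness before thallium and not channel activity; 0 = typical well and far values either way flag optical interference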
Active calls of the source: *. A portion of the library; rates above refer to the full screens.

structure,KCNQ2 enhance baseline,KCNQ2 enhance
COc1cc(OC)c(OC)cc1CN1CCN(C(=O)Cc2ccccc2)CC1,-1.6,0.26
CC1(C)CC(=O)C(C=NCCN2CCN(C(=O)Cc3ccccc3)CC2)=C(O)C1,-0.23,0.59
O=C(NCc1ccccc1)c1cccn(Cc2cccc(Cl)c2)c1=O,-0.04,0.65
COc1ccc2c(c1O)[C@]13CCN(C)[C@H](C2)[C@@H]1CCC(=O)C3,0.52,1.4
CC1(C)CN=C(Nc2ccccc2C(F)(F)F)S1,-1.1,2.4
CCN1CCC(NCC2CCCCC2)CC1,-0.32,2.1
Cc1ccsc1C(=O)C1CCCN(Cc2cnc(N(C)C)s2)C1 (stereo not drawn),1.5,0.03
O=S1(=O)CC2(N3CCOCC3)CCCCCCC21 (stereo not drawn),0.66,0.74
CN(C/N=C(\N)N[N+](=O)[O-])S(=O)(=O)c1ccccc1,2.9,0.68
O=C1NC(c2cc3ccccc3nc2Cl)Nc2ccccc21 (stereo not drawn),-0.85,1.7
CN(C)CCN=Cc1c(O)n(Cc2ccco2)c(=O)[nH]c1=O,0.16,0.35
COc1ccc(OC)c(NC(=O)N2C[C@H]3C[C@@H](C2)c2cccc(=O)n2C3)c1,-1.1,0.46

structure,KCNQ2 enhance baseline,KCNQ2 enhance
CNC(=O)O/N=C/c1nn(C(=O)C(C)(C)C)cc1Br,-1.2,0.53
Fc1ccccc1CNC1CN2CCC1CC2 (stereo not drawn),1.1,0.03
C[C@H]1OC[C@@H](C[N+](C)(C)C)O1,-0.26,0.05
COc1cc(/C=C2\C(=O)NC(=O)N(CCc3ccc(F)cc3)C2=O)ccc1O,1.7,0.98
CCOc1cc(/C=C2\C(=O)NC(=O)N(CCc3ccc(F)cc3)C2=O)ccc1O,2.5,0.1
COc1ccc(CN2CC3CC(C2)c2cccc(=O)n2C3)cc1OC (stereo not drawn),-0.26,1.1
CCN1CCN(Cc2ccc(C)cc2C)CC1,-0.06,1.6
N#CCCn1cc(C(=O)Nc2ccc(F)cc2)c(-c2ccc([N+](=O)[O-])cc2)n1,-0.18,0.28
C[C@H]1CCC[C@@H](O)CCC/C=C/c2cc(O)cc(O)c2C(=O)O1,-0.44,2.8
CCCCCCN1CCN(c2ccc(Cl)cc2)CC1,0.2,0.13
C[C@H]1O[C@@H](OC2CC[C@]3(C=O)[C@H]4CC[C@]5(C)[C@@H](C6=CC(=O)OC6)CC[C@]5(O)[C@@H]4CC[C@]3(O)C2)CC2OC(C)(C)OC21 (stereo partly drawn),0.2,1.1
CCOC(=O)C1=C(C)OC(N)=C(C(=O)OC)C12C(=O)Nc1ccc(Br)cc12 (stereo not drawn),-1.4,1.1

structure,KCNQ2 enhance baseline,KCNQ2 enhance
O=c1[nH]c(=S)n(-c2cccc(Cl)c2)c(O)c1C=NCCN1CCNCC1,0.15,0.14
CCOC(=O)C1C(=O)NC2(C)CC1c1cc(OC)ccc1O2 (stereo not drawn),-2.7,0.16
COc1ccc(/C=C/C(=O)NC(=S)N2C[C@H]3C[C@H](C2)c2cccc(=O)n2C3)cc1,0.23,1.8
Cc1ccnc(-n2c(C)cc(C=C3C(=O)N(C)C(=S)N(C)C3=O)c2C)c1,0.13,0.94
COc1ccc(CC(=O)N2C[C@H]3C[C@@H](C2)c2cccc(=O)n2C3)cc1,1.5,0.06
O=C(Cn1c2c(c(-c3ccccc3Cl)cc1=O)CCC2)N1CCC2(CC1)OCCO2,0.82,1
CCN1CCN(c2ccc(N)cc2C)CC1,-1.6,0.28
CCC(=NCc1ccco1)c1c(O)[nH]c(=O)[nH]c1=O,0.03,1.7
Cc1[nH]c2c(C(F)(F)F)cccc2c1CCN,-1.2,0.36
Cn1c(O)c(C=NC2CCN(Cc3ccccc3)CC2)c(=O)n(C)c1=O,-0.34,1.4
Fc1cccc(CNCCc2c[nH]c3ccccc23)c1,-0.31,1.4
CC(C(=O)c1c[nH]c2ccccc12)N1CCc2ccccc2C1 (stereo not drawn),0.36,0.94

Compounds above containing a CF3 group (2):
structure,KCNQ2 enhance baseline,KCNQ2 enhance
CC1(C)CN=C(Nc2ccccc2C(F)(F)F)S1,-1.1,2.4
Cc1[nH]c2c(C(F)(F)F)cccc2c1CCN,-1.2,0.36

Next part:
structure,KCNQ2 enhance baseline,KCNQ2 enhance
CCC1C2Cn3c(nc4ccccc43)C1N(C)O2 (stereo not drawn),0.22,1.2
N#CC(C#N)=Cc1ccc(-c2ccccc2)o1,-0.17,0.61
Cc1cc(OC(C)C(=O)NCc2ccncc2)c2c3c(c(=O)oc2c1)CCCC3 (stereo not drawn),-1.6,0.74
CC(=NCCC1=CCCCC1)c1c(O)n(C)c(=O)n(C)c1=O,-0.01,0.01
Cc1nc2c(c(=O)[nH]1)C(c1ccc([N+](=O)[O-])cc1)c1c(c3ccccc3oc1=O)O2 (stereo not drawn),-0.61,0.12
CC1=NN(Cc2c[nH]c3ccccc23)C(C)(C)C1,-0.51,0.2
C=CCn1c(O)c(C(C)=O)c(=O)[nH]c1=O (tested in a mixture with another compound),0.69,0.59
NP(=O)(Oc1ccc(Cl)cc1)Oc1ccc(Cl)cc1,-1.4,0.86
CCOC(=O)C1=C(N)OC2=C(C(=O)CCC2)[C@]12C(=O)N(CC(N)=O)c1ccccc12,0.66,0.04
C=CCn1c(O)c(C(CC)=NCCc2ccccc2)c(=O)[nH]c1=O,-2.4,0.54
O=C(Nc1ccccc1)OC1CN=C(N[N+](=O)[O-])NC1 (stereo not drawn),1.1,0.12
CC1=CC(=C2C(=O)NC(=S)NC2=O)C=C(C(F)(F)F)N1Cc1ccccc1,2.4,0.04

Record cards (already shown). Screens in order: KCNQ2 enhance baseline	KCNQ2 enhance
CC1=NN(Cc2c[nH]c3ccccc23)C(C)(C)C1 across the screens: -0.51	0.2
O=C(Nc1ccccc1)OC1CN=C(N[N+](=O)[O-])NC1 (stereo not drawn) across the screens: 1.1	0.12
C=CCn1c(O)c(C(CC)=NCCc2ccccc2)c(=O)[nH]c1=O across the screens: -2.4	0.54
N#CC(C#N)=Cc1ccc(-c2ccccc2)o1 across the screens: -0.17	0.61
Cc1cc(OC(C)C(=O)NCc2ccncc2)c2c3c(c(=O)oc2c1)CCCC3 (stereo not drawn) across the screens: -1.6	0.74

(further entries)
structure,KCNQ2 enhance baseline,KCNQ2 enhance
CC(Cc1cccs1)NCc1ccccc1 (stereo not drawn),0.95,1.6
CCN1CCN(c2nc3ccccc3s2)CC1,-0.34,2.2
CCC(C)N1CCN(C(=O)COc2ccc3ccccc3c2)CC1 (stereo not drawn),0.55,0.76
CCCCCCn1c(O)c(C=NC2CCCCC2N)c(=O)[nH]c1=O (stereo not drawn),-0.54,1.3
CCNC(=O)NC(=O)C(C)OC(=O)c1c(C)nn(Cc2ccccc2Cl)c1Cl (stereo not drawn),-1.5,0.03
O=c1c2ccccc2nc(-c2ccccc2)n1-c1cccnc1,1.5,1.5
COc1ccc(CNCCc2ccccc2F)c(OC)c1C,0.12,0.26
COC(=O)C(C)NC(=S)N1CC2C[C@@H](C1)Cn1c2cccc1=O (stereo partly drawn),-1.3,0.83
O=C1CC(C(=O)N2CCC3(CC2)OCCO3)CN1CCc1ccccc1 (stereo not drawn),-1.7,3.7
Clc1ccc(N2CCN(Cc3ccccc3Cl)CC2)cc1,-0.63,0.72
COc1ccc(F)cc1C(=O)C1CCCN(Cc2ccc(O)cc2)C1 (stereo not drawn),-0.55,0.27
Cc1nn(Cc2ccccc2Cl)c(Cl)c1C(=O)OC(C(=O)NC(N)=O)C(C)C (stereo not drawn),1.4,1.4

structure,KCNQ2 enhance baseline,KCNQ2 enhance
Nc1ccc(CCN2CCN(c3cccc(C(F)(F)F)c3)CC2)cc1,1.2,0.04
Cc1cc(C(=O)NP(=O)(N2CCOCC2)N2CCOCC2)c(C)n1C1CC1,-0.3,0.01
CCN(CC)C(=O)c1ccc(NC(=O)c2cn(-c3ccccc3)nc2-c2ccc(OC)cc2)cc1,-0.07,0.77
COP(=O)(OC)C(NS(=O)(=O)c1ccccc1)C(Cl)(Cl)Cl (stereo not drawn),1.4,0.86
CN1CCN(c2ccc(N)cc2)CC1,-0.24,0.3
Cc1cccc(N2C(=O)NC(=O)/C(=C\c3cnc(-c4ccccc4)nc3)C2=O)c1,1.1,0.28
COc1ccc(NC(=O)CN2C3CCC2CC(O)(c2cccnc2)C3)cc1OC (stereo not drawn),-2.1,0.02
Cc1ccc(C)c(OCc2cc(C(=O)N3C[C@H]4C[C@@H](C3)c3cccc(=O)n3C4)no2)c1,-1.8,1.4
CNS(=O)(=O)c1ccc(N=Cc2c(O)n(-c3ccccc3)c(=O)[nH]c2=O)cc1,-0.17,2.8
Cc1cc(OCC(=O)NCC(O)c2ccccc2)c2c3c(c(=O)oc2c1)CCC3 (stereo not drawn),0.96,1.1
Cc1cc(/C=C2\C(=O)NC(=O)N(c3ccc(Cl)cc3)C2=O)c(C)n1-c1sc2c(c1C#N)CCCC2,2.2,1.4
N=Cc1c(O)n(-c2cccc(Cl)c2)c(=O)[nH]c1=O,1.2,0.14

Shown with two lines to a compound: entries from further up.
Each structure is followed by: KCNQ2 enhance baseline | KCNQ2 enhance
- COc1ccc2c(c1O)[C@]13CCN(C)[C@H](C2)[C@@H]1CCC(=O)C3
    0.52 | 1.4
- CC1(C)CN=C(Nc2ccccc2C(F)(F)F)S1
    -1.1 | 2.4

Remaining list, next part:
structure,KCNQ2 enhance baseline,KCNQ2 enhance
CN(C)C(=O)Oc1ccc(C(=O)c2ccccc2)cc1,-0.52,0.01
CN1CCN(Cc2cc3c(cc2[N+](=O)[O-])OCO3)CC1,1.5,0.06
CCOc1cccc(N2C(=O)/C(=C/c3ccco3)C(=O)NC2=S)c1,-1.1,0.28
COC(=O)C1=C(c2cccc(OC)c2OC)C[C@@H]2CC[C@H]1N2C(=O)NCc1ccc(F)cc1,-0.56,0.47
Cc1ccc(C)c(-n2c(C)nc3ccccc3c2=O)c1,-0.95,0.19
CCCCCn1c(=O)c(C(=O)Nc2ncccc2C)c(O)c2ccccc21,-1.3,1.9
CCC1(OC(=O)CN)C(=O)OCc2c1cc1n(c2=O)Cc2cc3ccccc3nc2-1 (stereo not drawn),-1.6,0.46
CCC(C)n1c(O)c(C=NC(C)c2ccccc2)c(=O)[nH]c1=S (stereo not drawn),0.61,0.56
CCCCC/C(=N\O)c1c[nH]c2ccccc12,-0.22,2.2
CC12CN3CCN(C1)CC(C)(C3)C2=NO,1.5,0.35
CN1CSC(=S)N(C)C1,0.58,1.4
CC(C)(C)P(=O)(N1CCOCC1)N1CCOCC1,-1.1,0.15

structure,KCNQ2 enhance baseline,KCNQ2 enhance
CC(=NCCCN1CCCCC1)c1c(O)n(Cc2ccccc2)c(=O)[nH]c1=O,-0.69,0.34
Nc1ccccc1C(=O)OCc1ccc([N+](=O)[O-])cc1,-1.2,0.06
Cc1cc(/C=C2\C(=O)NC(=O)N(Cc3ccccc3)C2=O)c(C)n1-c1ccc(Cl)c(C(=O)O)c1,-0.08,0.61
Cc1ccc(N2C(=O)NC(=O)/C(=C\c3cccn3C(C)(C)C)C2=O)cc1,-0.15,1.6
COc1ccc2c(c1OC)CN1CCc3cc4c(cc3C1C2)OCO4 (stereo not drawn),0.42,0.44
COC(=O)C1=C(c2ccc(S(C)(=O)=O)cc2)C[C@@H]2CC[C@H]1N2C(=O)NCc1ccc(C(F)(F)F)cc1,-1.4,0.19
O=C(Nc1ccccc1)N1CC2CC(C1)c1cccc(=O)n1C2 (stereo not drawn),-0.76,0.05
O=[N+]([O-])c1ccc(N2CCCC2)c(F)c1Br,0.25,0.76
COc1ccc(S(=O)(=O)NC(CC(=O)N2CCC3(CC2)OCCO3)c2ccco2)cc1 (stereo not drawn),0.88,1.2
O=C(CNC(=O)OCc1ccccc1)NCC(=O)Nc1ccc(Br)cc1C(=O)c1ccccc1,0,1.9
CC(C)[N+]12CCC(CC1)C(C(O)(c1ccccc1)c1ccccc1)C2 (stereo not drawn),-0.03,1.7
COC(=O)C1=C(c2ccccc2)C[C@@H]2CC[C@H]1N2C(=O)NCCO,-0.39,1.4

structure,KCNQ2 enhance baseline,KCNQ2 enhance
CSc1ncc(/C=C2/C(=O)NC(=O)N(C3CCCCC3)C2=O)cn1,-0.22,0.59
c1ccc2cc(C3N4CCCN34)ccc2c1 (stereo not drawn),0.76,0.44
Cc1cc(C)c2c(ccc3cccc[n+]32)c1,-0.13,0.05
CNCC(C)c1ccccc1 (stereo not drawn),-0.71,0.49
CN1C[C@H](CO)C[C@@H]2c3cccc4[nH]cc(c34)C[C@H]21,-0.17,0.55
CC1(C)CSC(Nc2ccc(F)c(Cl)c2)=N1,1.2,0.01
C[N+]1(CCC(C(N)=O)(c2ccccc2)c2ccccc2)CCCCC1,1.8,0.29
CC1CCC(NCC(O)c2ccccc2)CC1 (stereo not drawn),1.6,0.8
CC12CN3CCN(CC(C3)/C1=N/NC(N)=O)C2,-0.32,0.86
C=CCn1c(O)c(C(C)=Nc2ccc(N(CC)CC)cc2)c(=O)[nH]c1=O,0.57,0.07
O=[N+]([O-])c1cc(S(=O)(=O)c2ccc(O)c([N+](=O)[O-])c2)ccc1O,-0.81,0.4
CCOC(=O)c1cncn1C(C)c1ccccc1 (stereo not drawn),-0.04,1.1

structure,KCNQ2 enhance baseline,KCNQ2 enhance
CCOC(=O)C1=C(N)OC(C)=C(C(=O)OCCOC)C12C(=O)Nc1ccccc12 (stereo not drawn),-0.12,1.2
c1ccc2c(CCNC3=NCCC3)c[nH]c2c1,0.25,0.7
CC(C)N1CC=C(c2c[nH]c3ccccc23)CC1,-1.1,1.2
COc1cccc(CNCCc2c[nH]c3ccccc23)c1,-0.6,2.5
